CtBP-E1A inh – qHTS Assay for Inhibitors of the CtBP/E1A Interaction. CtBP / adenovirus E1A interaction (AlphaScreen). AlphaScreen GST-E1A/His-CtBP binding, 1536-well; active compounds read low; control for the full effect not named in the record. activity change, % (test concentration not listed). actives 0.49% (n = 340,000). AID 651724, 2012; in the data active means activity change below about -65%; inconclusive means about -30% to -65%; inactive means above about -30%; note: % is set by controls: 0 for no effect and ±100 for the full control effect
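AlphaScreen with 125 nM GST-E1A and 125 nM His-CtBP (5X stocks) in Tris pH 8.0, 300 mM NaCl, BSA, Tween 20, TCEP. Compounds preincubated 2 h at 37 deg C, then glutathione donor/nickel acceptor beads added for 1 h at 37 deg C in dark.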
D2 agonist – Beta-Arrestin HTS for Positive Allosteric Modulators of the Human D2 Dopamine Receptor: Agonists; D(2) dopamine receptor (Homo sapiens), P14416; DiscoveRx PathHunter D2 beta-arrestin, luminescence, 90 min; 100% = 57 uM dopamine signal; activation, % (no concentration beside the values); actives 0.084% (n = 360,000); in the data active = activation above about 40%; inconclusive = about 15% to 40%; inactive = below about 15%; note: compound concentration not given in the record; the text of the record calls up to 30% inactive
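Agonist mode: compounds alone added to overnight-plated D2 PathHunter cells for 90 min at 37 C, with 57 uM final dopamine (EC100) defining full response. Beta-arrestin recruitment detected by chemiluminescent reagent, read after 1 h at ambient temperature.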
D2 potentiator – Beta-Arrestin HTS for Positive Allosteric Modulators of the Human D2 Dopamine Receptor: Potentiators | D(2) dopamine receptor (Homo sapiens), P14416 | DiscoveRx D2 beta-arrestin cells, luminescence, 90 min; 100% = 57 uM dopamine signal | potentiation, % (no concentration beside the values) | actives 0.23% (n = 360,000); active = potentiation of 50% or more; inconclusive = 30% to 50%; inactive = 30% or less;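 note: compound concentration not given in the record; tested on top of an EC20 dose of dopamine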
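D2 cells co-treated with compound plus 50 nM dopamine (EC20) for 90 min at 37 deg C to detect potentiation. Beta-arrestin recruitment was read as enzyme-fragment luminescence after 1 h at ambient temperature. Full response was set by 57 uM dopamine.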
TRPV1 potentiator – HTS Assay for Compounds that Act as Potentiators of the Vanilloid Receptor 1 | potentiation, % at 8.33 µM | actives 0.02% (n = 320,000) | TRPV1-expressing cells, Fluo-8 calcium influx, capsaicin EC20 potentiation; host cell line not named in the record; control for the full effect not named in the record | Transient receptor potential cation channel subfamily V member 1 (Homo sapiens), Q8NER1; active means potentiation above 80%; inconclusive means 30% to 80%; inactive means below 30%; note: 0% is about no effect
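Fluo-8 calcium influx in TRPV1-expressing cells, kinetic read (ex 480/em 520 nm). Compound added and read 3 min for agonist activity, followed by capsaicin at EC20 final and 2 min further read for enhancement.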
Six1-Eya2 inh – qHTS Assay for Inhibitors of the Six1/Eya2 Interaction | Homeobox protein SIX1 (Homo sapiens) + Protein phosphatase EYA2 (Homo sapiens), … | AlphaScreen GST-Six1/His-Eya2 binding, biochemical; active compounds read low; control for the full effect not named in the record | activity change, % (concentration not given with the values) | actives 0.56% (n = 360,000); in the data active = activity change below about -65%; inconclusive = about -30% to -65%; inactive = above about -30%; note: % is set by controls: 0 for no effect and ±100 for the full control effect
Target sequence (O00167 whole entry, looked up): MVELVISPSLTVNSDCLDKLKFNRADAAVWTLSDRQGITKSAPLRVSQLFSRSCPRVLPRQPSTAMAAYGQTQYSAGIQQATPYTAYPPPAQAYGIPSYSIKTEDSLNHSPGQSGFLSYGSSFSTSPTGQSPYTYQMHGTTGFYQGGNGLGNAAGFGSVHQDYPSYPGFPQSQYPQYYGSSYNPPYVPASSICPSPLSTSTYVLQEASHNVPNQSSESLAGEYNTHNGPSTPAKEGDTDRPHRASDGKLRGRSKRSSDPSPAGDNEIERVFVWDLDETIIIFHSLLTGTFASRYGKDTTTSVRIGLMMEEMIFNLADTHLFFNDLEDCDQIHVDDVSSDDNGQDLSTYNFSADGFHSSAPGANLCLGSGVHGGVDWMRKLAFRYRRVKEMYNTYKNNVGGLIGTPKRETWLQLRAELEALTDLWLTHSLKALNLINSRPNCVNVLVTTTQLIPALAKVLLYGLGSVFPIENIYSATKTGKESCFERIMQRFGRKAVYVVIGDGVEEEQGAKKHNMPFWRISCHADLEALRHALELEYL
Target sequence (Q15475 whole entry, looked up): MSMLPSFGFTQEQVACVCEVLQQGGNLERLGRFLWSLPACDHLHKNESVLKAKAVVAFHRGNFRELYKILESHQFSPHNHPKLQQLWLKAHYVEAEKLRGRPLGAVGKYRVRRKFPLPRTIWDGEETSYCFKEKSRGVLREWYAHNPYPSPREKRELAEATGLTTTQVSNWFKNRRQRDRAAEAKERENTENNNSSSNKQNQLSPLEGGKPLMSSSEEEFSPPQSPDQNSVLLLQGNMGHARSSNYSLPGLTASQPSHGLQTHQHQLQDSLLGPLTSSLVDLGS
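Compounds are tested against tagged Six1 and Eya2 proteins bridged by glutathione donor and nickel acceptor beads; after a one-hour incubation at 37 °C without light, AlphaScreen emission is recorded.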
Sfp PPTase inh – qHTS Assay for Inhibitors of Bacillus subtilis Sfp phosphopantetheinyl transferase (PPTase); 4'-phosphopantetheinyl transferase ffp (Bacillus subtilis), Q9F4F7; Biochemical Sfp PPTase activity, qHTS; Potency, µM, inactives show max response, negative = inhibition, hits mostly inhibitors; actives 3.5% (n = 310,000); active = well fitted inhibition curve with a large enough effect; inconclusive = small, poorly fitted or top-dose-only effect, or another doubt; inactive = no such curve, though single readings can be large or run the other way;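 note: the enzyme is Sfp with the accession as filed and its product quenches rhodamine fluorescence; potency is the fitted concentration of half-maximal effect; 0% = enzyme reaction without inhibitor and -100% = no enzyme wells; top concentration of the series not given in the record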
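After 15 min at room temperature with compound, 15 nM Sfp received 5 uM rhodamine-CoA plus 12.5 uM BHQ-2-ybbR (50 mM Hepes pH 7.6, 10 mM MgCl2). Rate came from the fluorescence difference over 30 min, ex 525/em 598 nm.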
PINK1 modulator – A Quantitative High throughput Screen to Identify Chemical Modulators of PINK1 Expression; PINK1 immunofluorescence, high-content cytometry, 24 h; Potency, µM (doses to about 76.6 µM), for the others: at the top dose activation (PINK1 increase), hits mostly activators; actives 0.2% (n = 410,000); AID 624263, 2012; active = well fitted activation curve with a large enough effect; inconclusive = small, poorly fitted or top-dose-only effect; inactive = flat fitted curve, though single readings scatter; cell line not stated here;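 note: potency is the fitted concentration of half-maximal effect; % of control where 0% means no effect; nearly all actives have a fitted effect of over 65% in size; a mitochondrial uncoupler was the plate control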
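A stable cell line was treated with compounds at 5 concentrations for 24 hours, with CCCP as control. PINK1 levels and mitochondrial localization were measured by immunofluorescence with mitochondrial, cell and nuclear markers after fixation, read by laser-scanning cytometry.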
Numbers without * were called inactive; ? = inconclusive; . = no result given; & = joins results of further samples; [ ] = dose if it differs, or a comment. An unsorted share of the library; any-hit rate near 3.7%.

Below each SMILES: PINK1 modulator	Sfp PPTase inh	TRPV1 potentiator	D2 agonist	Six1-Eya2 inh	D2 potentiator	CtBP-E1A inh
C[C@H]1CN([C@@H](C)CO)S(=O)(=O)c2ccc(-c3ccncc3)cc2O[C@H]1CN(C)C(=O)c1cccc(F)c1
  1.7%	.	.	-0.1	0	.	5
CCOC(=O)Cc1csc(NC(=O)COc2ccc3c(C)cc(=O)oc3c2)n1
  2.1%	-17%	1	-0.5	-14	0	-1
Cc1nnc(NC(=O)c2ccc3c(c2)OCO3)s1
  -0.5%	9%	11	-2.9	-3	3	-14
COc1ccc(/C=C2/SC(=S)N(c3ccc(S(=O)(=O)Nc4nccs4)cc3)C2=O)cc1
  5.6%	-2%	2	-2.2	-21	-3	-30
CC1(C)Cc2ccccc2C2=C(C(=O)N3CCCCCC3)C(=O)C(=O)N21
  -0.8%	12%	-4	1.0	5	-11	.
O=C(CCn1c(=O)c2sccc2n(CC(=O)OCc2ccccc2)c1=O)NCc1ccco1
  0.9%[38.3 µM]	7%	4	-2.8	-6	7	-1
O=C(O)C1CCN(C(=O)c2scc3c2OCCO3)CC1
  7.6%	6%	1	-5.1	26	4	0
Cc1ccc(C(=O)NCCc2ccc(F)cc2)s1
  0.4%	13%	-11	-3.1	-7	-27	-2
O=C1S/C(=C\C=C\c2ccco2)C(=O)N1c1ccccc1
  5.6%	?	16	-4.5	-2	3	-8
CCN(CC)S(=O)(=O)c1cccc(C(=O)Nc2cc(C)on2)c1
  -0.6%	18%	12	-6.1	1	-3	0
c1nc(N2CCC3(CC2)OCCO3)c2c3c(sc2n1)CCCC3
  2.3%	4%	-14	0.8	3	-6	12
Clc1ccc(/C=C/c2nc(Cl)c(-c3ccc(Cl)cc3)c(Cl)n2)cc1
  1.2%	3%	10	0.3	-13	5	.
CN(C)S(=O)(=O)c1cccc(C(=O)OCC(=O)Nc2sccc2C#N)c1
  -1.1%	79µM*	0	3.2	-26	13	?
COc1ccc(NC(=S)N2CCN(S(=O)(=O)c3ccccc3)CC2)cc1OC
  -0.4%	0%	-17	2.2	1	-6	4
O=C(CC(C(=O)N1CCc2ccccc21)n1ccnc1)NCc1ccccc1 (stereo not given)
  -2.2%[38.3 µM]	11%	17	-3.8	1	-16	-7

As a working copy, 3 of the compounds above:
Below each SMILES: PINK1 modulator	Sfp PPTase inh	TRPV1 potentiator	D2 agonist	Six1-Eya2 inh	D2 potentiator	CtBP-E1A inh
c1nc(N2CCC3(CC2)OCCO3)c2c3c(sc2n1)CCCC3
  2.3%	4%	-14	0.8	3	-6	12
Clc1ccc(/C=C/c2nc(Cl)c(-c3ccc(Cl)cc3)c(Cl)n2)cc1
  1.2%	3%	10	0.3	-13	5	.
CN(C)S(=O)(=O)c1cccc(C(=O)OCC(=O)Nc2sccc2C#N)c1
  -1.1%	79µM*	0	3.2	-26	13	?

Next part.
Below each SMILES: PINK1 modulator	Sfp PPTase inh	TRPV1 potentiator	D2 agonist	Six1-Eya2 inh	D2 potentiator	CtBP-E1A inh
CC[C@]12c3[nH]c4ccccc4c3CCN1C(=O)C(CC(=O)NCc1ccco1)C[C@@H]2C(=O)N1CCN(C(=O)c2ccco2)CC1 (stereo not given in full)
  -0.6%	.	.	-0.9	-5	.	4
CCOc1ccccc1C1NC(=O)NC(C)=C1C(=O)OCc1ccccc1 (stereo not given)
  -0.7%	13%	?	12	17	5	.
CCN(C[C@H]1N[C@@](C)(C(=O)OC)[C@H]2C(=O)N(Cc3ccccc3)C(=O)[C@@H]12)C(=O)NC(C)C
  -0.9%	.	.	-1.2	18	4	0
CC(Oc1ccc(C#N)cc1)C(=O)c1ccc(F)c(F)c1 (stereo not given)
  -0.6%	13%	-8	6.1	10	8	8
COc1ccc(NS(=O)(=O)c2cc(C(=O)NNC(=O)c3ccncc3)ccc2OC)c(OC)c1
  2.3%	.	.	0.9	2	-4	0
Clc1ccc(Cn2ncc3c(NCc4cccnc4)ncnc32)cc1
  -0.8%	7%	?	-0.6	-11	4	-1
CCC(=O)Nc1cccc(NC(=O)CSc2nnc(C3CC3)n2C)c1
  -0.9%	-1%	-10	-2.2	4	2	-1
CCOC(=O)N1CCN(C(=O)CCN2C(=O)/C(=C\c3ccc(OC)c(OC)c3)SC2=S)CC1
  32µM*	.	.	-1.2	6	-7	1
NC(=O)C1CCN(C(=O)c2ccc(C(F)(F)F)cc2)CC1
  -0.3%	11%	?	-1.4	4	-8	4
CCOc1ccc(NC(=O)N2CC(C)OC(C)C2)cc1 (stereo not given)
  2.3%	2%	8	1.1	0	-9	4
COc1ccc(C(=O)COC(=O)CCN2C(=O)C3C4C=CC(C5CC45)C3C2=O)cc1 (stereo not given)
  -1.9%	4%	10	-5.6	-8	-12	-2
O=C(CCN1CCN(C/C=C/c2ccccc2)CC1)Nc1ccccc1
  -3.4%	1%	-9	0.7	-4	-30	-1
COC(=O)c1ccc(NC(=O)CN2CCN(S(=O)(=O)c3ccc(Br)cc3)CC2)cc1
  -0.1%&1.6%	4%	15	-2.2	-3	0	-3
Cc1ccc(NCc2nnc(SCC(N)=O)n2CC2CCCO2)c(C)c1 (stereo not given)
  -0.9%	13%	-2	2.5	-6	3	-4
c1ccc(C(CN2CCOCC2)c2ccccc2)cc1
  -3.4%[38.3 µM]	-15%	3	-1.8	8	-3	23
CC(=O)c1ccc(NC(=O)c2cn(C)c(=O)c3ccccc23)cc1
  2.0%&1.6%	.	.	-1.2	-9	-9	2
COc1ccccc1-c1nnc(SCC(=O)O)n1C
  1.4%[38.3 µM]	20%	5	-2.5	0	-12	7
Cc1nc(C)c(C(=O)OCC(=O)Nc2ccccc2SCC#N)s1
  0.2%	.	-6	6.8	-8	-12	1
COc1cc2c(cc1OC)C1CCc3cc4c(cc3C1N=C2)OCO4 (stereo not given)
  4.9%	.	.	-3.4	-14	-1	-2
C[C@@H]1CC[C@@]2(O[C@H](CCO)C[C@H](O)[C@H]2O)O1
  0.2%	-2%	15	-0.7	0	2	2
COc1ccc(C)cc1-n1c(SCC(=O)NC2CC2)nc2ccccc2c1=O
  -0.5%	.	-31	1.6	7	4	2
COc1ccccc1-c1nnc(NC(=O)C(C)Sc2nncn2C)s1 (stereo not given)
  0.7%	9%	?	-5.6	-7	-2	.
CN(CC(=O)NCCC1=CCCCC1)S(=O)(=O)c1ccc2c(c1)c(=O)n(C)c(=O)n2C
  2.6%	8%	-13	-3.2	-15	-4	-2
Cc1cc(NS(=O)(=O)c2ccc(NC(=O)CNS(=O)(=O)c3ccccc3)cc2)nc(C)n1
  0.3%	.	.	-2.2	-28	-20	?
CC(Oc1ccccc1)C(=O)Nc1oc(-c2ccco2)c(-c2ccco2)c1C#N (stereo not given)
  2.7%	-6%	0	0.7	-23	-22	-27
Cc1ccc(CN2CC(C(=O)N(C)CC(=O)Nc3cccc(F)c3)CC2=O)cc1 (stereo not given)
  0.1%	18%	5	-1.1	-4	-4	4
O=C(Cc1ccc(NC(=O)C2CCN(C(=O)C3CCC3)CC2)cc1)Nc1ccc(C(=O)N2CCOCC2)cc1
  -0.5%	.	.	-1.2	4	.	7
CCCC(=O)Nc1ccc(C(=O)NCCc2ccc(F)cc2)cc1
  1.6%	4%	7	-3.9	3	5	-1
CN(CC(=O)N1CCN(c2ccc(F)cc2)CC1)S(=O)(=O)c1ccc(F)cc1
  -1.0%	-13%	30	-0.6	-1	-10	2
COc1ccc2nc(SCC(=O)Nc3ccc(S(=O)(=O)N4CCCC4)cc3)c(C#N)cc2c1
  13%[38.3 µM]	5%	2	1.5	-2	2	1

Two entries from above, field by field:
> NC(=O)C1CCN(C(=O)c2ccc(C(F)(F)F)cc2)CC1
  PINK1 modulator: -0.3%; Sfp PPTase inh: 11%; TRPV1 potentiator: ?; D2 agonist: -1.4; Six1-Eya2 inh: 4; D2 potentiator: -8; CtBP-E1A inh: 4
> CCOc1ccc(NC(=O)N2CC(C)OC(C)C2)cc1 (stereo not given)
  PINK1 modulator: 2.3%; Sfp PPTase inh: 2%; TRPV1 potentiator: 8; D2 agonist: 1.1; Six1-Eya2 inh: 0; D2 potentiator: -9; CtBP-E1A inh: 4

Continuation.
Below each SMILES: PINK1 modulator	Sfp PPTase inh	TRPV1 potentiator	D2 agonist	Six1-Eya2 inh	D2 potentiator	CtBP-E1A inh
CC(=O)c1ccc(S(=O)(=O)N2CCC(NC(=O)c3ccccc3)CC2)cc1
  -0.1%	18%	-20	2.7	-1	-1	8
COc1ccc(Oc2c(OC)cc(NCc3ccc(CN)cc3)c3ncccc23)cc1
  -1.4%	.	.	4.3	?	-7	-5
COC(=O)c1ccccc1NCCO
  -0.3%	11%	-6	-5.7	7	-27	.
O=C(COC(=O)Cc1c(Cl)cccc1Cl)NCc1ccccc1
  1.4%	.	.	-2.4	1	-3	0
COc1ccc(C2=NN3C(=O)c4c(ccc(OC)c4OC)C3C2)cc1 (stereo not given)
  0.1%	19%	1	-1.5	-1	11	6
CCSc1nnc(NC(=O)c2cc(-c3ccccc3O)n[nH]2)s1
  12%	13%	-14	-2.7	-6	0	-4
C/C(CC(=O)Nc1c(C)cc(C)cc1C)=N\NC(=O)OC(C)(C)C
  -1.5%	11%	-3	-2.7	-6	-18	2
COc1cc2cc(CCOC(=O)c3ccco3)oc(=O)c2cc1OC
  -0.4%	.	3	-0.4	-10	-12	-12
C/C(=N\NC(=O)c1nnn(-c2nonc2N)c1-c1ccccc1)c1ccccc1O
  1.8%	-4%	5	-4.5	-12	-10	-22
CSCCC(NC(=O)c1ccccc1Br)C(=O)N1CCC(C)CC1 (stereo not given)
  -0.5%	26%	0	3.9	2	-4	10
C/C(Cn1cnc([N+](=O)[O-])n1)=N\NC(=O)c1ccc(F)cc1
  2.4%	10%	-12	1.7	-2	-2	3

High-throughput results as filed in PubChem.
